RanGTP-Imp inh: disruptors of Ran-importin-beta complex formation – biochemical, FRET, CFP-Ran, YFP-importin-beta, homogeneous, primary screen. 300,000 compounds, 1.1% hits. cell-free CFP-Ran/YFP-importin-beta FRET ratio. inhibition, % (test concentration not listed);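 active = most replicates above 15%; inconclusive = exactly half above 15%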;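 note: 0% = DMSO wells and 100% = Ran loaded with GDP instead of GTP; wells of about 40 µL received 100 nL stock; the first replicate is given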
Beta apoptosis: beta cell apoptosis inhibition. protection from apoptosis, % (no concentration beside the values). INS-1E cytokine-induced death, ATP luminescence, 48 h; percent of positive-control rescue, neutral wells zero. 300,000 compounds, 0.8% hits;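 active = all replicates at 75% or more, or half of them and the mean; inconclusive = half reach 75% but not the mean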;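 note: 0% = cytokine-treated negative control wells and 100% = positive control rescue; higher means more ATP so stronger rescue from cytokine killing; wells of about 40 µL received 100 nL stock; the first replicate is given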
T cruzi repl: T. cruzi replication inhibition; inhibition, % (concentration not given with the values); T. cruzi beta-gal in NIH3T3, luminescence, 90 h; 300,000 compounds, 1.4% hits;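 active = mean inhibition across valid replicates above about 55%, limit read from the data; inconclusive = mean below that limit but half or more replicates reach it; inactive = mean below it, under half of replicates reach it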;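 note: signal also drops with host cell toxicity which is not excluded here; 0% = plate median of DMSO wells and 100% = zero luminescence signal; higher percent means less beta-gal luminescence so fewer parasites; stock transfer was 50 nL into about 50 µL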
A1 inh: inhibitors of the anti-apoptotic protein A1, read as caspase activation; MEF A1-2A-BIM cells, Caspase-Glo 3/7 luminescence, 3 h; percent of clofoctol response, vehicle zero; caspase activation, % (concentration not given with the values); 330,000 compounds, 0.066% hits; AID 2462;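 active = over half of replicate activation scores above 10%, or exactly half above 10 with the replicate mean above 10; inconclusive = replicate mean below 10 yet half the replicates above 10; inactive = over half of replicates below 10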;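 note: wells of about 30 µL received 50 nL stock; many hits fall short of the cut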
Vif A3G: inhibitors of Vif binding to APOBEC3G peptide, primary screen, biochemical, TR-FRET, GST-Vif 1-94, biotin-A3G peptide, dose response retest (AID 1117319); TR-FRET GST-Vif / biotin-A3G peptide binding; higher % means a stronger effect; test concentration not given here; strong numbers were not always called active; one-dose inhibition, %; IC50 in µM for titrated hits; 260,000 compounds, 0.57% hits;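 active = above the screen mean plus three standard deviations and confirmed in dose response; inconclusive = results disagree or hit not tested in dose response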;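 note: Vif residues 1-94 fused to GST binding biotinylated APOBEC3G peptide 110-148; 0% = full assay without inhibitor and 100% = GST in place of GST-Vif; retest series ran down from 100 µM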
MLL AF4-AF9 inh: MLL-AF4/AF9 protein interaction inhibition. P42568. AlphaScreen, biotin-AF4 peptide binding to FLAG-AF9. inhibition, % at 10 µM. 350,000 compounds, 0.47% hits. AID 651704;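 active = every replicate reaching a set inhibition limit, whatever the replicate mean, cut at about 25% in these data; inconclusive = mean inhibition reaches that limit but some replicates miss it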;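 note: 0% = plate neutral control median and 100% = total signal loss; the record names both 10 and 1 µM as test concentration; the first replicate is given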
Target sequence (P42568 whole entry, looked up): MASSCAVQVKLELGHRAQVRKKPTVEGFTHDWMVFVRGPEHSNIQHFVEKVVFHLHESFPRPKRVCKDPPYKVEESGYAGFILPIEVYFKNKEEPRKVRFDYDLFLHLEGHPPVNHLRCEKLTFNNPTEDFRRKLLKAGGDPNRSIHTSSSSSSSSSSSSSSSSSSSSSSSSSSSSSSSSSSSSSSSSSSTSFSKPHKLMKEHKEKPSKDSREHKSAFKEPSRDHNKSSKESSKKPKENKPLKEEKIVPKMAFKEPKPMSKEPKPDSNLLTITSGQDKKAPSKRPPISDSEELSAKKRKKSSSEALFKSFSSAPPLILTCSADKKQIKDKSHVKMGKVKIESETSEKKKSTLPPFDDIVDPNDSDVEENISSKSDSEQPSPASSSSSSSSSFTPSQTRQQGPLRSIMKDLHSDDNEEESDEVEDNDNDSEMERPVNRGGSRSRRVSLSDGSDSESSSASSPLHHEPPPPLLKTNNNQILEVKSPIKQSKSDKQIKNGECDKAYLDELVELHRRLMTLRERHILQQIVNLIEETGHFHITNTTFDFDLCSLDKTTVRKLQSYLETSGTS
Ecoli rRNA inh: inhibitors of bacterial rRNA selective over humanized ribosomes; 350,000 compounds, 1.6% hits; AID 720706; E. coli WT GFP vs humanized-ribosome RFP mutants, fluorescence, 24 h; hits give low values; DMSO median 0, no signal -100; GFP signal change (wild-type ribosome), % (test concentration not listed);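 active = significant combined selectivity score with lowered wild-type GFP, culture density cut under 30%, mutant RFP and density less affected; inactive = any of these conditions unmet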; note: one replicate is shown; some compounds called inactive have numbers as strong as hits
Calb FLC: affects C. albicans growth with fluconazole | growth inhibition, % (no concentration beside the values) | C. albicans CaCi-2 (fluconazole-resistant clinical isolate) + fluconazole, Alamar Blue growth, 48 h | AID 1979 | 300,000 compounds, 0.57% hits;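 active = most replicates above 75%; inconclusive = exactly half above 75%; inactive = most below 75%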;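 note: all wells also contain fluconazole at 8 µg/ml as a sub-toxic cotreatment; 0% = median of DMSO wells and 100% = median of geldanamycin control wells; wells of about 8 µL received 7.5 nL stock; the first replicate is given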
Ecoli rRNA inh OD600: also measured in Ecoli rRNA inh; calls as there; OD600 change, %; measured here: OD600 growth;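 optical density of the mix in the first replicate; 0 = DMSO median and -100 = no signal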
Ecoli rRNA inh RFP: further read-out of Ecoli rRNA inh, marked with its call; RFP signal change, %; measured here: RFP humanized mutant strains;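 first replicate; 0 = DMSO median and -100 = no signal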
Numbers without * were called inactive; ? = inconclusive; . = no result given; & = joins results of further samples. Only part of the results is shown, so the mix of outcomes need not match the whole.

Results follow in this order: RanGTP-Imp inh, Beta apoptosis, T cruzi repl, A1 inh, Vif A3G, MLL AF4-AF9 inh, Ecoli rRNA inh, Ecoli rRNA inh OD600, Ecoli rRNA inh RFP, Calb FLC
CCN(CC)C(=O)c1sc2nc(-c3cccs3)cc(-c3cccs3)c2c1N
  -16.7, -3.1, 34.1, 1.5, ., -2.6, 1.8, 7.2, 43.2, 3.2
COc1ccccc1CCC(=O)N1CCN(C(=O)c2ccccc2)CC1
  -0.6, ., 2.0, 0.1, 7.2%, -10.8, 0.8, -0.3, 0.8, -5.9
Cc1ccc(C(=O)NCCN2CCOCC2)cc1S(=O)(=O)N1CCCCC1
  1.0, 0.2, 3.7, 0.0, ., -0.2, 5.8, 7.3, -1.4, 6.7
COC(=O)CNC(=O)CNC(=O)c1nn(-c2ccc(OC)c(Cl)c2)c(=O)c2ccccc12
  -0.2, 4.9, -12.6, -0.1, 0.0%, ., ., ., ., 16.9
O=C(Oc1ccccc1)c1ccc2nsnc2c1
  0.8, -1.9, -20.8, -0.1, 2.4%, ., ., ., ., -1.9
O=C(Nc1ccc(Cl)cc1Cl)NC1CCN(S(=O)(=O)c2ccc(F)cc2)CC1
  7.5, 6.7, 8.8, -0.4, 4.1%, ., -15.5, -6.0, 18.4, -1.4
COC(=O)c1ccc(COC(=O)C2CCN(S(=O)(=O)c3ccc(C)c(C)c3)CC2)o1
  -2.0, -5.4, -2.7, 2.3, 10.0%, -0.9, -0.4, -1.2, -0.2, 0.2
NNc1ncnc2scc(-c3ccc(Cl)cc3)c12
  1.5, 94.2*, -6.3, 0.3, 7.0%, 2.5, -1.1, -5.3, -0.6, 14.5
O=C(CC1C(=O)NCCN1C(=O)Nc1ccc(F)cc1)Nc1cc(Cl)ccc1Cl (centres undefined)
  2.4, -5.0, 19.2, -0.1, -3.8%, -1.7, -27.5, -24.9, -0.7, 8.0
CCCn1c(N)c(C(c2ccc(OC)cc2)N2CCN(c3ccccc3)CC2)c(=O)[nH]c1=O (centres undefined)
  2.3, -5.4, 2.3, -0.4, -11.8%&-4.2%, ., ., ., ., 14.8
CCOC(=O)C(Oc1ccc2c(-c3ccccc3)cc(=O)oc2c1C)c1ccccc1 (centres undefined)
  1.0, ., 21.8, 0.9, ., 2.4, -14.8, -2.0, 2.4, -2.4
Cc1ccc(NC(=O)CS(=O)CC(=O)NCC2OCCc3ccccc32)c(C)c1 (centres undefined)
  -6.6, 1.9, -9.4, 0.2, -0.2%, ., ., ., ., 27.4
CC(C)OC(=O)c1c(NC(=O)CCC(=O)O)sc2c1CCCCC2
  -7.9, -4.2, 3.3, 0.6, 9.1%, 5.6, -11.2, -0.8, 1.8, 8.2
COc1ccc(C(=O)Nc2ccc(O)c3c(=O)cc(-c4cccc(Cl)c4)oc23)cc1
  0.8, 11.5, -2.3, 0.2, ., -1.1, 2.6, 6.9, -4.2, -10.8
CC(=O)Nc1ncc(Cc2cc(Cl)ccc2Cl)s1
  -2.6, -14.0, 26.4, 0.4, ., -2.3, 12.5, 17.6, 0.3, -20.9
NCCCn1c(C(=O)c2ccc(Cl)cc2)c2ccc(C(F)(F)F)cc2[n+]1[O-]
  -1.9, 30.6, -9.4, -0.3, ., 13.8, 12.6, 5.1, 12.8, 47.0
O=C(N/N=C\c1ccccn1)c1cccc(C(=O)N/N=C\c2ccccn2)n1
  6.0, ., -9.3, -0.3, ., -3.2, 22.6, 25.1, 3.6, -2.3
O=C(NCCc1ccccc1)/C(=C\c1ccc([N+](=O)[O-])cc1)NC(=O)c1ccc(Br)cc1
  -7.8, -3.8, -19.0, 0.0, -4.4%, 1.5, 7.8, 4.2, -2.2, -6.2
CCOc1ccc(NC(=O)CN(C)C(=O)c2ccccc2OCCOc2ccccc2)cc1OCC
  ., -1.2, ., 0.1, 7.1%, -2.6, 4.7, 3.8, -1.0, .
CN1CCN(CC(O)(c2ccc(Cl)cc2)c2ccc(Cl)cc2)CC1
  2.1, ., 32.9, -0.7, ?, 10.3, -15.3, -31.9, -3.4, -2.4
COC(=O)c1ccc(C(=O)N2CCCC(Nc3ccc(F)c(F)c3)C2)cc1 (centres undefined)
  0.9, -1.7, 14.3, -2.8, 5.5%, -1.1, -7.8, -10.3, -1.3, 11.2
CCC(C)c1ccc(NC(=S)NC2CCN(Cc3ccccc3)CC2)cc1 (centres undefined)
  1.2, 110.9*, 24.2, 1.5, ., 8.3, -50.5, -78.2, -24.6, -4.7
O=C(Cn1c(C(F)(F)F)nc2ccccc21)Oc1cccc(C(F)(F)F)c1
  0.8, -0.9, ., -0.4, 9.7%, ., ., ., ., -5.2
COc1ccc(OCCCNCCc2ccccc2)cc1
  0.2, -2.5, ?, 0.4, 1.1%, 3.0, 11.4, 2.1, 0.2, -21.1
Cc1csc(NC(=O)C2CC(=O)N(c3ccc(C)c(C)c3)C2)n1 (centres undefined)
  1.9, -4.4, -8.0, 0.6, ., -3.2, 2.0, 3.9, 1.1, -3.6
C=CCn1c(SCC(=O)Nc2ccc(OC)cc2)nnc1-c1cnccn1
  -1.0, 2.0, 3.0, -0.1, ., -0.3, 2.9, 4.9, -6.3, 0.0
COc1ccc(Cl)cc1C(=O)NNC(=O)c1csc(N2CCOCC2)n1
  -2.3, -5.1, -4.4, -2.4, -4.7%, -2.2, 0.7, 1.1, 4.2, -8.1
CCC(=O)Nc1cc(OC)cc(OC)c1
  1.4, -5.1, 5.9, 0.4, -1.3%, -1.2, 12.1, 11.9, 0.3, 4.4
C=CCN1C=CC(=C/C=C(/C#N)C(=O)OCC)C=C1
  0.5, ., 7.5, -1.6, -2.5%, ., ., ., ., 4.4
Cc1ccc(Sc2cc(Cl)nc(N)n2)cc1
  1.2, -10.8, 2.1, 0.1, -1.2%, ., ., ., ., 8.5
Cc1ccc(CNc2ccc([N+](=O)[O-])cc2C(N)=O)cc1
  ., -2.9, ., -0.1, ., 0.1, 12.8, 19.9, 5.6, .
COc1ccc(C(C)C)cc1S(=O)(=O)Nc1ncn[nH]1
  0.1, -0.9, -2.9, -0.4, ., -2.5, 17.4, 3.5, 0.6, 0.6
COc1ccc(C(=O)COC(=O)c2sccc2C)cc1OC
  ., -1.3, ., -0.9, ., 1.0, -10.5, -11.2, 2.8, .
CCOc1ccc(OCc2ccc(C(=O)N3CCCCC3)o2)cc1
  0.1, -5.0, 13.3, 1.5, ., 3.2, -18.3, -4.2, -2.4, -5.1
COCc1cc(Sc2cccc(Cl)c2Cl)nc(-c2ccccc2)n1
  0.5, -6.2, 16.8, -1.1, ?, ., ., ., ., 10.5
O=C(CCSCCc1ccccn1)Nc1ccc(Br)cc1F
  -14.4, 4.1, 1.2, 1.3, ., ., ., ., ., -1.8
Cc1ccccc1NC(=O)CN1C(=O)COc2ccc(Cl)cc21
  1.0, 2.5, 8.5, -0.4, 2.5%, -3.6, 1.6, 0.4, 0.2, -5.9
COc1ccc(CC(=O)Nc2ccccc2C(=O)N2CCOCC2)cc1OC
  -1.3, -0.9, -13.4, 0.5, -1.2%, ., ., ., ., -4.0
O=C(CCc1nc2ccccc2c(=O)[nH]1)NNC(=O)c1ccccc1Cl
  2.9, -4.3, -11.9, -0.2, -2.2%, -1.9, 10.5, 10.0, -0.4, .
CC1CCC(CN2C(Nc3ccccc3)=NC[C@@H]2C)CC1 (some centres undefined)
  -3.3, 3.2, -8.7, -0.3, ., -1.5, -1.5, -8.9, 1.3, -17.7
Cc1ccc(-c2csc(NC(=O)/C=C/c3ccco3)c2C(=O)O)cc1
  ?, -17.3, -3.7, -5.9, ?, 2.2, -8.6, -6.6, 1.8, 6.0
COc1ccc(OC)c(/C=N/NC(=O)CN2CCSCC2)c1
  5.6, -2.1, -10.1, 0.2, ?, ., ., ., ., -13.0
O=C(CCNC(=O)N1CCn2c1nc1ccccc12)NCc1ccccc1
  6.8, -3.9, 5.0, 3.0, ., -0.6, 5.4, 6.1, -2.1, 17.9
CC(C)(C)C(=O)N1CCN(c2nc3ccc(Cl)cc3s2)CC1
  -2.9, ., 12.9, 0.7, ., -1.0, 2.8, -2.7, 0.0, 14.3
CCCNS(=O)(=O)c1ccc(OCC(=O)Nc2ccc3c(c2)OCCO3)c(C)c1
  2.4, ., 6.2, 0.6, 6.1%, 1.4, -8.7, -5.8, -1.4, -6.9
Cn1cccc1C(=O)NC(=O)COC(=O)CC12CC3CC(CC(C3)C1)C2
  3.7, -1.7, 2.9, -0.6, -0.6%, ., ., ., ., 22.5
CC(C)C(NC(=O)c1ccc(Cl)cc1Cl)C(=O)N1CCN(S(=O)(=O)c2ccccc2)CC1 (centres undefined)
  ., -5.0, ., 0.0, -7.3%, 1.9, -4.8, -4.2, 0.4, .
CCCCN1C(=O)C(O)(CC(=O)c2ccccc2OC)c2ccccc21 (centres undefined)
  7.8, ., 12.9, 0.1, -3.3%, -1.6, 0.3, 0.1, -1.8, -0.5
CS(=O)(=O)N1CCN=C1SCc1ccc(Br)cc1
  -2.1, -0.2, 4.8, 0.0, 0.7%, -2.4, 1.2, 5.8, -1.6, 6.4
O=C(CCn1c(=S)oc2ccccc21)Nc1cccc(F)c1
  -4.5, -9.9, 30.1, -0.5, 8.4%, ., ., ., ., -20.9
COC(=O)c1ccccc1S(=O)(=O)NNC(=O)c1ccccc1-n1cccc1
  2.4, -7.2, -1.6, -0.6, ., -1.2, 7.4, 4.5, -2.0, 4.6
CCOc1ccc(/C(O)=C2/C(=O)C(=O)N(CCN(CC)CC)C2c2ccco2)cc1 (centres undefined)
  -0.9, -1.5, -24.8, 0.6, ., ., ., ., ., 14.2
Cc1ccc(S(=O)(=O)N(C(=O)c2ccncc2)c2ccc(OC(=O)c3ccncc3)cc2)cc1
  2.6, -10.3, -6.4, 0.2, 0.4%, ., ., ., ., -1.6

Source: PubChem
